ALR inh: inhibitors of human ALR sulfhydryl oxidase, primary screen, biochemical, H2O2 detection, HRP-luminol luminescence, single point. FAD-linked sulfhydryl oxidase ALR (Homo sapiens), P55789. purified ALR, DTT oxidation. inhibition, % (no concentration beside the values). 290,000 tested, 3.8% active. AID 485317, 2010;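 active means mean and each replicate at 75% or more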;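 further: stock transfer was 7.5 nL into about 7.5 µL; 0% = neutral wells and 100% = wells with inactivated enzyme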
Target sequence (P55789 whole entry, looked up): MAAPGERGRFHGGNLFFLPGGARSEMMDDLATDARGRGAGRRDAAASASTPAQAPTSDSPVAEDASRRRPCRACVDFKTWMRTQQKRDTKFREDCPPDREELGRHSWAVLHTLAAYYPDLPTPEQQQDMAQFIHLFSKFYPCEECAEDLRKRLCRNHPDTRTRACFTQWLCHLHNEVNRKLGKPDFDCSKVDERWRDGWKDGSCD
Ecoli growth: E. coli growth inhibition, primary screen, OD600; Escherichia coli growth, 23 h; hits give low values; AID 1053175, 2014; OD600 absorbance (test concentration not listed); 330,000 tested, 0.21% active;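 active means OD600 absorbance below the run mean of sample wells minus 3.6 SD, in any replicate, cut at about 0.56 in these data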;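 further: stock transfer was 300 nL into about 60 µL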
FGF22 binding: binders of human FGF22 protein, primary screen, FGF22 synaptogenesis inhibitor project, biophysical, thermal shift, single point; Fibroblast growth factor 22 (Homo sapiens), Q9HCT0; recombinant FGF22 thermal shift, SYPRO orange fluorescence; percent of sucrose octasulfate shift, DMSO zero; calls only at 9.99 µM; 340,000 tested, 1.5% active; AID 651658, 2012;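 active means melting point raised past a set limit in the mean and every replicate; three in four hits are not shown here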
Target sequence (Q9HCT0 whole entry, looked up): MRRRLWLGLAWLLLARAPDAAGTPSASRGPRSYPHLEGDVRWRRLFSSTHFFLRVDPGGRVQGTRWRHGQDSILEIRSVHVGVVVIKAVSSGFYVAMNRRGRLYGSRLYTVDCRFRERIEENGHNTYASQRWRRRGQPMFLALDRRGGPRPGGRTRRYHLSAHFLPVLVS
UCH37 DUB inh: inhibitors of human UCH37 deubiquitinase, primary screen, biochemical, Ub-AMC cleavage, fluorescence | Ubiquitin carboxyl-terminal hydrolase isozyme L5 (Homo sapiens), Q9Y5K5 | purified proteasome/UCH37 | inhibition, % (concentration not given with the values) | 330,000 tested, 0.33% active | AID 588478, 2011;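 active means mean of two replicates above 20%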;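 further: 0% = compound-free wells with enzyme and 100% = wells lacking proteasome; stock transfer was 100 nL into about 20 µL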
Target sequence (Q9Y5K5 whole entry, looked up): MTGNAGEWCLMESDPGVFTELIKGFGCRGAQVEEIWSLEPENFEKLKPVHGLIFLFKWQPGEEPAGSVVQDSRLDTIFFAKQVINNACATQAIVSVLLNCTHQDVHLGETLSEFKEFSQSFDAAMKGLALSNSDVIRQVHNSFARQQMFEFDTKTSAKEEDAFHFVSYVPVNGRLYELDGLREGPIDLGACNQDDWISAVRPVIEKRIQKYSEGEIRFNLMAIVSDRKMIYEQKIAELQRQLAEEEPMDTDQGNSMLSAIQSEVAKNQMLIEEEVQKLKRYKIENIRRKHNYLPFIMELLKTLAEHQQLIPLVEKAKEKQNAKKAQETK
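Schedule: 30 min plus 25 min, room temperature / Material: human UCH37 within purified proteasomes / Technique: AMC fluorescence intensity at 355/460 nm / Buffer or medium: pH 7.4 Tris-HCl (50 mM) with ovalbumin, ATP-MgCl2, DTT / Controls: wells without proteasome as full block, compound-free enzyme plus substrate as uninhibited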
HNF4A DNA FP: change in binding of human HNF4A to DNA, primary screen, biochemical, fluorescence polarization, FITC-DNA; Hepatocyte nuclear factor 4-alpha (Homo sapiens), P41235; 1 h; activity change, % at 10 µM; 360,000 tested, 0.3% active; AID 1224865, 2016; in the data active means activity change above about 30%, passing the limit was not always enough;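 further: controls were the assay level and a saturating level of protein; the project sought stronger binding though the title names inhibitors; some compounds called inactive have numbers as strong as hits; positive values seem to mean higher polarization but the record does not say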
Beta2AR agonist: beta2AR agonists driving receptor internalization, primary screen, cell-based, FAP fluorogen, flow cytometry; response, % (test concentration not listed); Beta-2 adrenergic receptor (Homo sapiens), P07550; 340,000 tested, 0.43% active; AID 504454, 2011; Am2.2-beta2AR cells; reference of the scale not given here;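 active means response above a set limit, near 3 SD of response in nonfluorescent compounds, cut at about 42% in these data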;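 further: stock transfer was 100 nL into about 11 µL; a reference agonist was the positive control; negative values mostly stem from fluorescent compounds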
Ecoli rRNA inh: reduced GFP signal of wild-type E. coli, primary screen, bacterial rRNA inhibitor project, GFP/RFP fluorescence, OD600, single point; GFP signal change (wild-type ribosome), % (concentration not given with the values); 350,000 tested, 1.6% active; E. coli WT GFP vs humanized-ribosome RFP mutants, 24 h; hits give low values; DMSO median 0, no signal -100; AID 720706, 2013;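 active means significant combined selectivity score with lowered wild-type GFP, culture density cut under 30%, mutant RFP and density less affected; inactive means any of these conditions unmet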; further: one replicate is shown; some compounds called inactive have numbers as strong as hits
Ecoli rRNA inh OD600: further read-out of Ecoli rRNA inh, marked with its call; OD600 change, %; measured here: OD600 growth;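 optical density of the mix in the first replicate; 0 = DMSO median and -100 = no signal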
Ecoli rRNA inh RFP: second read-out of Ecoli rRNA inh, no call of its own (marks repeat the call); RFP signal change, %; measured here: RFP humanized mutant strains;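 first replicate; 0 = DMSO median and -100 = no signal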
Numbers without * were called inactive; i = inactive; nt = not tested or not shown; & = joins results of further samples; ! = not confirmed by another sample. Only part of the results is shown; count on the stated rates, not on these rows.

SMILES	ALR inh	Ecoli growth	FGF22 binding	UCH37 DUB inh	HNF4A DNA FP	Beta2AR agonist	Ecoli rRNA inh	Ecoli rRNA inh OD600	Ecoli rRNA inh RFP
CC1(c2ccccc2Cl)NC(=O)N(CC(=O)N2CCN(S(=O)(=O)c3ccccc3)CC2)C1=O (stereo unspecified)	nt	0.69	i	0.5	-2.4	-1	-13	-16	-0.3
O=C(CCN1C(=O)C2C3C=CC(C3)C2C1=O)NCCN1CCCc2ccccc21 (stereo unspecified)	-30	0.68	nt	-3.8	-7.3	6	nt	nt	nt
COc1cc(C2C(C(=O)c3ccc(C)o3)=C(O)C(=O)N2CCc2ccccc2)ccc1O (stereo unspecified)	51	0.74	nt	10	0.1	1	nt	nt	nt
CC(=O)NC(=S)Nc1sc2c(c1C(N)=O)CCC(C)C2 (stereo unspecified)	89*	0.74	i	6.8	0.8	-11	-28*	-21*	1.5*
COc1ccc(/C=N/NC(=O)c2cccc(NC(=O)c3ccccc3Cl)c2)c(OC)c1	-5	nt	i	nt	-1.2	28	-16	-10	-3.6
Cn1c(=O)c2c(nc(SCCN3CCOCC3)n2Cc2ccccc2Cl)n(C)c1=O	-4	0.74	i	5.4	-1.0	2	nt	nt	nt
Brc1ccc2c(c1)C(c1cccnc1)=NNC(c1cccs1)=N2	1	0.67	nt	2.6	0.7	-30	nt	nt	nt
Cn1cc(C(=O)OCC2CCN(CCNS(C)(=O)=O)CC2)c2ccccc21	0	0.71	i	3.6	0.1	-4	nt	nt	nt
COc1cccc(/C=C2/SC(=S)N(CC(=O)NNC(=O)c3ccccc3OC)C2=O)c1	-2	0.72	i	6.4	-1.1	3	3	8	0.9
COc1cccc(C2N=C(c3ccccc3C)NO2)c1OC (stereo unspecified)	-7	0.65	i	0.2	4.0	4	-1	5	-1.1
Clc1cccc(Cl)c1Cn1c(-c2cccnc2Cl)nc2ccccc21	1	0.7	i	2.7	-2.3	-72	-50	-50	-22
O=C(O)Cc1ccc(NC(=O)c2ccc3c(c2)C(=O)N(Cc2ccco2)C3=O)cc1	0	0.72	i	4.2	-15	-4	10	11	1.0
Cc1ccc(NC(=O)COC(=O)CCC2CCCC2)cc1S(=O)(=O)N1CCOCC1	7	0.67	i	1.2	3.2	-3	2	-10	2.2
Cn1cccc1CC(=O)NNC(=O)Nc1cccc(Cl)c1	52	0.72	i	2.4	0.9	0	1	0	0.9
CCOc1ccc(NC(=O)C(NC(=O)C2CCC(C)CC2)C(C)C)cc1 (stereo unspecified)	-11	0.71	i	2.7	3.9	-1	16	7	-4.6
C[C@H](CO)N1C[C@H](C)[C@H](CN(C)C(=O)Nc2ccc3c(c2)OCO3)Oc2ncc(Br)cc2C1=O	nt	nt	i	nt	0.3	nt	2&4	-3&23	0.0&0.7
CCN(CC(=O)NCc1cccs1)C(=O)c1ccc(-c2ccccc2F)o1	nt	0.7	i	5.0	1.6	-15	-17	-14	-1.4
O=C(Nc1ccc(F)cc1)N1CCN2C(=O)c3ccccc3C12c1ccccc1 (stereo unspecified)	-2	0.75	nt	5.1	-1.7	6	nt	nt	nt
COc1ccc(S(=O)(=O)N(C)c2ccc(C(=O)N3CCCCC3)cc2)cc1	-1	0.65	i	4.7	-2.5	-3	-4	6	8.8
Cc1ccc(/C=C/c2nc3sc(C(=O)O)c(C)c3c(=O)[nH]2)cc1[N+](=O)[O-]	-3	0.68	i	3.0	-12	28	6	11	-0.7
Cc1ccc(/C=C/C(=O)O)cc1S(=O)(=O)Nc1ccc(C(=O)O)cc1	2	0.7	i	4.7	-2.8	-5	11	16	20
CCCCN(CCCNC(=O)C1CCCN(S(=O)(=O)CC)C1)Cc1ccccc1 (stereo unspecified)	-28	0.69	nt	5.0	0.0	1	nt	nt	nt
COc1ccc(NC(=O)C2CC(=O)OC23CCOC(C)(C)C3)cc1 (stereo unspecified)	-5	0.73	nt	-2.6	1.5	-2	nt	nt	nt
CC(C)c1c(C(=O)N/N=C/C2CC=CCC2)nnn1-c1nonc1N (stereo unspecified)	-1	nt	i	nt	-7.1	-4	3	-1	0.1
Cc1cn(CC(=O)NCCCN2CCCC2=O)c(=O)[nH]c1=O	nt	nt	i	nt	0.7	0	7	24	-2.3
O=C(Nc1ccccc1)Nc1nc(-c2ccc(F)c(F)c2)cs1	0	0.71	nt	2.2	0.3	-2	nt	nt	nt
COc1ccc(NC(=O)CCNS(=O)(=O)c2cccc(C(C)=O)c2)cc1S(N)(=O)=O	-3	0.65	i	-0.2	-1.9	-4	0	8	-1.1
Cc1ccccc1N(CC(=O)NC1CCCCC1)C(=O)CNC(=O)c1cccs1	1	0.67	i	2.2	2.6	-1	-2	-11	-2.2
O=C(CN1CCN(c2ccc(F)cc2)CC1)NCc1cccs1	52	0.73	i	4.9	18	-6	6	5	1.7
COC(=O)c1ccc(CSc2ncnc3c2sc2nc(N4CCOCC4)c4c(c23)CCCC4)o1	nt	0.72	nt	-83	9.0	8	nt	nt	nt
O=C(Nc1cccc(-c2cccc(F)c2)c1)C1CCN(CC2CCOC2)CC1 (stereo unspecified)	-2	0.65	nt	2.1	4.8	15	3	0	1.1
C=CCN1C(=O)C2(OCCCO2)c2cc(Cl)ccc21	0	0.67	i	0.5	1.2	2	3	-2	-2.2
Cn1c(=O)c2c(SCC(=O)N3CCCC3)nc(-c3ccccc3)nc2n(C)c1=O	-2	0.74	nt	1.4	-1.7	-8	nt	nt	nt
O=C(c1ccco1)N1CCN(C(=O)c2ccc(COc3ccc(Cl)cc3Cl)o2)CC1	49	0.65	nt	-0.3	1.9	-1	nt	nt	nt
NC(=O)c1ncn([C@@H]2O[C@H](CNS(=O)(=O)c3cc(S(=O)(=O)c4ccccc4)cs3)[C@@H](O)[C@H]2O)n1	nt	nt	nt	nt	1.4	-4	8	17	-2.4
CC(C)(C)C(=O)NC(C(N)=O)=C(Cl)Cl	0	0.69	nt	5.1	1.9	0	nt	nt	nt

Molecules listed so far that have an NH in an aromatic ring, in the order listed:
SMILES	ALR inh	Ecoli growth	FGF22 binding	UCH37 DUB inh	HNF4A DNA FP	Beta2AR agonist	Ecoli rRNA inh	Ecoli rRNA inh OD600	Ecoli rRNA inh RFP
Cc1ccc(/C=C/c2nc3sc(C(=O)O)c(C)c3c(=O)[nH]2)cc1[N+](=O)[O-]	-3	0.68	i	3.0	-12	28	6	11	-0.7
Cc1cn(CC(=O)NCCCN2CCCC2=O)c(=O)[nH]c1=O	nt	nt	i	nt	0.7	0	7	24	-2.3

One compound at a time, from the list above. Values in the order: ALR inh	Ecoli growth	FGF22 binding	UCH37 DUB inh	HNF4A DNA FP	Beta2AR agonist	Ecoli rRNA inh	Ecoli rRNA inh OD600	Ecoli rRNA inh RFP
O=C(Nc1ccccc1)Nc1nc(-c2ccc(F)c(F)c2)cs1 is entered as 0	0.71	nt	2.2	0.3	-2	nt	nt	nt
Cc1ccccc1N(CC(=O)NC1CCCCC1)C(=O)CNC(=O)c1cccs1 is entered as 1	0.67	i	2.2	2.6	-1	-2	-11	-2.2
COC(=O)c1ccc(CSc2ncnc3c2sc2nc(N4CCOCC4)c4c(c23)CCCC4)o1 is entered as nt	0.72	nt	-83	9.0	8	nt	nt	nt
O=C(CN1CCN(c2ccc(F)cc2)CC1)NCc1cccs1 is entered as 52	0.73	i	4.9	18	-6	6	5	1.7
NC(=O)c1ncn([C@@H]2O[C@H](CNS(=O)(=O)c3cc(S(=O)(=O)c4ccccc4)cs3)[C@@H](O)[C@H]2O)n1 is entered as nt	nt	nt	nt	1.4	-4	8	17	-2.4

(continued)
SMILES	ALR inh	Ecoli growth	FGF22 binding	UCH37 DUB inh	HNF4A DNA FP	Beta2AR agonist	Ecoli rRNA inh	Ecoli rRNA inh OD600	Ecoli rRNA inh RFP
O=C(NC1CCS(=O)(=O)C1)C12CC3CC(CC(C3)C1)C2 (stereo unspecified)	-3	0.7	i	2.6	2.5	9	18	-7	0.3
COc1ccc(-c2c(C#Cc3ccsc3)c3cc(-c4ccc5c(c4)OCO5)ccc3n2C)cc1	-3	0.71	i	-40	8.4	0	8	3	-1.0
CC1C(C)N(C(=O)CCCl)c2ccccc2N1C(=O)CCCl (stereo unspecified)	nt	0.67	i	0.8	-0.8	-12	6	8	-0.1
O=C(CSc1nncs1)NNC(=O)c1ccco1	nt	nt	i	nt	-2.8	-4	nt	nt	nt
COc1ccc(S(=O)(=O)N2CCOC23CCN(S(=O)(=O)c2ccc([N+](=O)[O-])cc2)CC3)cc1	0	0.69	i	3.7	1.5	-1	10	15	2.1
CCOc1cccc(-c2nnc(SCC(=O)Nc3ccc(OC)c(OC)c3)n2N)c1	-11	0.68	nt	1.1	-2.3	-4	nt	nt	nt
O=C(Nc1ncc([N+](=O)[O-])s1)c1cccs1	97*!	0.62&0.57	i	13&5.6	1.5&6.4	-3&6	-58	-80	-13
CCC(C(=O)NCCCN1CC(C)CC(C)C1)n1nc(C)c2sc3ccccc3c2c1=O (stereo unspecified)	-3	0.69	i	-0.9	1.8	16	0	1	4.7
CN(C[C@@H](CC1CCCCC1)N(C[C@H](Cc1ccccc1)N(CCc1ccccc1)N=O)N=O)N=O	nt	nt	i	-0.8	-4.8	2	5	-10	-1.6
Cc1ccccc1Nc1nc(N)nc(COC(=O)c2ccc(O)cc2)n1	44	0.63	nt	1.2	-0.1	-2	nt	nt	nt
Cc1cc(NS(=O)(=O)c2ccc(NC(=O)C(F)(F)F)cc2)nc(C)n1	-8	0.68	i	2.7	0.4	-12	2	7	-0.4
